# Vaccinia mCherry – qHTS for Stage-Specific Inhibitors of Vaccinia Orthopoxvirus: mCherry Reporter Primary qHTS; Potency, µM (top dose mostly 36.5 µM), for inactives: at the highest dose activity change, negative = inhibition, usual class: inhibitors; Vaccinia virus mCherry reporter infection, fluorescence; about a quarter of the inactives have no number; 310,000 compounds, 0.63% hits; active = well fitted inhibition curve with a large enough effect; inconclusive = small, poorly fitted or top-dose-only effect; inactive = no such curve, though single readings can be large or run the other way; tested in A549 cells; also: nearly all actives have a fitted effect of over 35% in size; inactives centre near -10
# Vaccinia Venus – qHTS for Stage-Specific Inhibitors of Vaccinia Orthopoxvirus: Venus Reporter Primary qHTS; 330,000 compounds, 0.46% hits; Potency, µM (highest dose often 36.5 µM), without a hit: at the top dose activity change, negative = inhibition, usual class: inhibitors; Vaccinia virus Venus reporter expression, fluorescence; active means well fitted inhibition curve with a large enough effect; inconclusive means small, poorly fitted or top-dose-only effect; inactive means no such curve, though single readings can be large or run the other way; tested in A549 cells; also: nearly all actives have a fitted effect of over 30% in size; inactives centre near -10
# * = called active by the depositor; i = inactive; ? = inconclusive; nt = no result given; & = joins results of further samples; [ ] = dose if it differs, or a comment. % is scaled to controls: 0 for no effect and ±100 for the full control effect; potency is read from the fitted curve at half-maximal effect.
SMILES,Vaccinia mCherry,Vaccinia Venus
Cc1ccccc1NC(=O)N1CCN(S(=O)(=O)c2ccccc2)CC1,i,-6.1%
CSc1cccc(NC(=O)c2cc(S(=O)(=O)N3CCCC3)cn2C)c1,24.7%,-9.2%
C[C@@H]1CN([C@@H](C)CO)C(=O)CCCn2nncc2CO[C@H]1CN(C)C(=O)CCC(F)(F)F,i,-13.1%
COc1cccc(NC(=O)COC(=O)COc2ccccc2[N+](=O)[O-])c1,i,-6.5%
O=C(Cc1ccccc1[N+](=O)[O-])N1CCN(Cc2ccc3c(c2)OCO3)CC1,-15.4%,-20.5%
O=C(c1ccccc1Oc1ccccc1)N1CCN(c2ccccc2)CC1,nt,-20.9%
O=C(Cc1ccc(S(=O)(=O)N2CCOCC2)s1)NCCOc1ccccc1F,i,6.1%
Oc1oc(-c2ccccc2Br)nc1C=Nc1ccc(Br)cn1,-10.0%,-13.1%
CCOC(=O)c1cc(NC(=O)c2cnccn2)cc(C(=O)OCC)c1,-6.6%,-8.0%
N/C(=N\OC(=O)CCC1CCCC1)c1ccc(Br)cc1,i,-10.6%

# For reference, some entries already given.
SMILES,Vaccinia mCherry,Vaccinia Venus
Cc1ccccc1NC(=O)N1CCN(S(=O)(=O)c2ccccc2)CC1,i,-6.1%
CSc1cccc(NC(=O)c2cc(S(=O)(=O)N3CCCC3)cn2C)c1,24.7%,-9.2%

# Other entries
SMILES,Vaccinia mCherry,Vaccinia Venus
O=C(CCS(=O)(=O)c1nc(-c2ccc3c(c2)OCO3)cc(C(F)(F)F)n1)Nc1ccc(F)c(Cl)c1,-19.3%,-17.1%
C[C@]12c3[nH]c4cc(-c5ccco5)ccc4c3CCN1C(=O)[C@@H](CC(=O)NCCCn1ccnc1)C[C@@H]2C(=O)N1CCOCC1,-14.5%,-8.4%
COc1cccc(CNC(=O)COC(=O)c2cc(Br)c(Br)s2)c1,-11.6%,-4.6%
COc1ccc(Oc2nnc(-c3ccccc3)cc2C#N)cc1,i,-24.6%
CCCCCOc1ccc(C(=O)N(Cc2ccccc2)C2CCS(=O)(=O)C2)cc1 (stereo not drawn),-13.6%,-10.5%
COC(=O)[C@H](CCSC)NC(=O)c1cc2c(cn1)[nH]c1ccccc12,-6.4%,?
CCc1nc2ccc(C(=O)NCCOc3ccc(OC)cc3)cn2c1N(C)Cc1nccn1C,43.7%[activator],-9.9%
O=C1CC(N2CCN(C/C=C/c3ccccc3)CC2)C(=O)N1Cc1cccs1 (stereo not drawn),nt,-4.7%
COc1ccc(N(C(=O)CNC(=O)c2ccco2)C(C(=O)NCC2CCCO2)c2ccccc2)cc1OC (stereo not drawn),-10.7%,-6.2%
Cc1ccc2nc3c(nc2c1C)CCCC3,-8.9%,-12.8%

# Entries of single compounds, looked up by structure.
# Entry for `C[C@]12c3[nH]c4cc(-c5ccco5)ccc4c3CCN1C(=O)[C@@H](CC(=O)NCCCn1ccnc1)C[C@@H]2C(=O)N1CCOCC1` → Vaccinia mCherry: -14.5%; Vaccinia Venus: -8.4%
# Entry for `COC(=O)[C@H](CCSC)NC(=O)c1cc2c(cn1)[nH]c1ccccc12` → Vaccinia mCherry: -6.4%; Vaccinia Venus: ?

# Following part
SMILES,Vaccinia mCherry,Vaccinia Venus
COc1ccc(-n2nc(C)c3onc(C)c3c2=O)cc1,-19.5%,-4.1%
O=S(=O)(c1cccc(F)c1)N1CCN(c2ncnc3scc(-c4ccc(F)cc4)c23)CC1,-23.3%,-11.2%
CCOc1ccc(N(CC(=O)Nc2cccc(OC)c2)S(=O)(=O)c2c(C)noc2C)cc1,i,-11.7%
COC(=O)c1ccc(OCc2cc(=O)n3ccsc3n2)cc1,-12.2%,-11.0%
O=C(c1ccco1)N1CCN(c2nc(-c3ccc(F)cc3)cs2)CC1,i,-8.6%
CCOC(=O)C1CCCN(c2nc3c(S(=O)(=O)c4ccc(Br)cc4)nnn3c3ccsc23)C1 (stereo not drawn),-6.9%,-3.2%
CC(=O)Nc1ccc(S(=O)(=O)N(C)CC(=O)OC(C)C(=O)N(C)C2CCCCC2)cc1 (stereo not drawn),-7.5%,-12.1%
CC(=O)c1ccc(N2CCN(C(=O)CS(=O)(=O)c3cccc4nsnc34)CC2)cc1,-5.2%,-15.6%
CN(C)c1ccc(Cn2ccc3ccccc32)cc1,36.6%[activator],5.7%
CN(C)c1ccc(CNC(=O)CCS(=O)(=O)c2ccc3c(c2)oc(=O)n3C)cc1,-7.1%,-2.4%
CCOc1ccccc1CNc1ccc(O)cc1,?,5.1%
C[C@H](CO)N1C[C@H](C)[C@@H](CN(C)Cc2ccc(-c3ccccc3)cc2)Oc2ncc(C#C[C@@H](C)O)cc2C1=O,?,-30.0%
CCN1CCN(CCOc2ccc(Cl)cc2)CC1,i,-6.1%
CCOC(=O)C1CCCN(CCC(=O)Nc2cc(C)cc(C)c2)C1 (stereo not drawn),-4.8%,-7.7%
Cc1cc(N2CCC(C)CC2)nc2ccc(NC(=O)/C=C/c3cccc(Cl)c3)cc12,5.8%,5.0%
CC(=O)Nc1cccc(OCC(=O)NC(C)c2ccc3ccccc3c2)c1 (stereo not drawn),-5.2%,0.9%
COc1ccc(C2=NOC(Cn3nc(-c4ccccc4)cc3C(=O)NCc3cccc(C(F)(F)F)c3)C2)cc1 (stereo not drawn),i,-2.5%
[O-]/C(=C(\C(=S)Nc1ccc(SC(F)F)cc1)[n+]1ccccc1)c1ccc(Cl)cc1Cl,i,-14.7%
CCOC(=O)c1c(C)[nH]c(CCC(=O)NCCCN2CCN(c3ccccc3F)CC2)c1C,-17.4%,-18.1%
COc1ccc(N2CCN(CCCNC(=O)CN3CCN(Cc4ccccc4C)C3=O)CC2)cc1,-15.3%[1.46 µM],-19.4%
Cc1oc(-c2ccccc2)nc1CS(=O)CC(=O)NC1CCCC1 (stereo not drawn),i,-10.2%
CCCCNC(=O)NNC(=O)c1ccoc1C,nt,1.4%
COc1ccc(C)cc1-n1nnnc1SCc1nc2ccccc2c(=O)[nH]1,-27.6%,?
COc1cccc(C(=O)n2nc(-c3ccco3)nc2NCc2cccs2)c1,-5.4%,-10.6%
Cc1ccn(C(=O)c2ccc(NC(=O)C3CCCCC3)cc2)n1,nt,-13.1%
CN(C)S(=O)(=O)c1cc(NC(=O)c2cc(=O)c3ccccc3o2)ccc1Cl,-14.7%,-14.9%
Cc1ccc(N2C(=O)C3C4C=CC(CNC(=S)Nc5ccc(F)cc5)(O4)C3C2=O)cc1 (stereo not drawn),-16.4%,-14.9%
COc1c(Cl)cnn(-c2ccccc2)c1=O,i,-12.2%
CC(=O)N1CCc2c(sc3c2c(=O)n(-c2ccccc2Cl)c(=O)n3Cc2cccc(C)c2)C1,-21.9%,-3.5%
CCN(C(=O)Cc1cccs1)c1nnc(-c2cc(OC)c(OC)c(OC)c2)s1,i,-18.7%
CN(c1ccc(Br)cc1)S(=O)(=O)c1ccc2[nH]cc(C(=O)NCCN3CCOCC3)c(=O)c2c1,-14.5%,-13.0%
COc1ccc(NC(C)=O)cc1S(=O)(=O)Nc1ccccc1C(=O)NCCc1ccccc1,i,-2.3%
CC(C)C(NS(=O)(=O)c1ccc2c(c1)oc(=O)n2C)C(=O)NCCc1ccc(Cl)cc1 (stereo not drawn),-7.9%,9.3%
CSc1nc(N)nc(-c2cccs2)c1C#N,nt,?
COc1ccc(CCNC(=O)c2c(C)oc3ncnc(N4CCOCC4)c23)c(OC)c1,-19.1%,-12.7%
Cc1ccc(F)cc1NCC(=O)Nc1ccc(Cl)cc1F,-18.5%,-14.2%
O=C(CSc1nc2ccccc2[nH]1)N1CCCCC1,i,-15.1%
COc1ccccc1CNC(=O)CSc1ncc(C(=O)Nc2ccccc2)c(=O)n1C,i,-9.1%
O=S(=O)(c1ccccc1C(F)(F)F)N1CCN(c2nc(-c3cccs3)nc3ccccc23)CC1,-20.9%,-11.3%
O=S(=O)(NCc1ccc(F)cc1)c1cc(Br)ccc1Br,?,-20.7%&-26.1%
O=c1[nH]cnc2c1sc1nc3c(c(-c4ccc(Cl)cc4)c12)CCC3,nt,2.82µM*
Cc1ccc(N(Cc2ccco2)C(=O)c2cccc(S(=O)(=O)N(C)C)c2)cc1,nt,-13.4%
O=C(CSCc1ccc(Cl)c(Cl)c1)Nc1c[nH]c(=O)[nH]c1=O,i,-9.0%
C[C@@H]1CN([C@@H](C)CO)C(=O)CCCn2nncc2CO[C@@H]1CN(C)S(=O)(=O)c1ccccc1C#N,-16.3%,-3.6%
CCCN(CCC)C(=O)CC(c1ccccc1)c1ccco1 (stereo not drawn),0.0%,-3.8%
Cc1ccccc1OCC(O)CN1CCN(CCN2C(=O)c3cccc4cccc(c34)C2=O)CC1 (stereo not drawn),-13.9%,-27.2%
Cc1c(CCC(=O)O)c(=O)oc2cc3occ(-c4ccc(F)cc4)c3cc12,i,-16.2%
O=C(COc1ccc(Br)cc1)Nc1cc(S(=O)(=O)N2CCCCC2)ccc1N1CCCCC1,-12.6%,-3.4%
Cc1ccc(Oc2nn[nH]n2)cc1,-16.0%,-9.8%
COc1cc(C(=O)NCc2cn3cccc(C)c3n2)cc(OC)c1OC,i,-5.4%
# New compounds follow:
SMILES,Vaccinia mCherry,Vaccinia Venus
COc1ccc(/C=C2\Oc3cc(OCC(=O)N4CC(O)C[C@H]4C(=O)O)ccc3C2=O)c(OC)c1OC (stereo partly drawn),-7.8%,-14.0%
Nc1cc(OC(=O)c2cccs2)nn1S(=O)(=O)c1ccccc1,-28.3%,-23.2%
NC(=O)CC1SC(N)=NC1=O (stereo not drawn),-5.6%,-7.5%
O=C(CSc1nnc(C2CC2)n1CC1CCCO1)Nc1ccc(Cl)cc1 (stereo not drawn),i,-9.2%
O=C(CN1C(=O)NC2(CCSC2)C1=O)N1CCN(c2ccc(F)cc2)CC1 (stereo not drawn),-18.3%,-5.1%
O=C(COC(=O)c1cc([N+](=O)[O-])ccc1N1CCOCC1)Nc1ccccc1OC(F)F,-14.5%,-13.3%
COc1ccc(C2=NS(=O)(=O)N(C)C(C(=O)NC3CCCCC3)=C2)cc1,-6.2%,?
COc1cc(NC(=O)c2cc(C)no2)cc(OC)c1OC,i,-3.6%
COc1ccc(C(=O)NCC(=O)NCc2ccncc2)cc1,-16.4%,-11.1%
C=C1C(=O)[C@]23C[C@H]1CCC2[C@]1(C)CCC[C@@](C)(C(=O)O)C1C[C@@H]3O (stereo partly drawn),6.31µM*,3.55µM*
O=C(CN1C(=O)COc2ccc(Cl)cc21)Nc1cccc(C(=O)O)c1,-7.7%,1.0%
Cc1cccc(C(=O)NC2CC3CCCC(C2)N3Cc2ccccc2)c1 (stereo not drawn),-18.0%,-7.8%
CCn1c(=O)c(CCC(=O)NCCN2CCOCC2)c(C)c2c(C)nn(-c3cccc(C)c3)c21,i[7.34 µM],-20.7%[7.34 µM]
Cc1cc(C)nc(SC(C)CNS(=O)(=O)c2ccccc2)n1 (stereo not drawn),i,-3.9%
O=S(=O)(Cc1ccccc1)Nc1ccc(S(=O)(=O)NCC2CCCO2)cc1 (stereo not drawn),-25.2%,-7.0%
Cc1ccc(N2C(=O)c3ccccc3C2Nc2ccc(S(=O)(=O)N3CCOCC3)cc2)nc1 (stereo not drawn),4.9%,9.9%
COc1ccc(NC(=O)CSc2nc3c(c(=O)n2-c2ccccc2OC)SCC3)cc1,-7.3%,3.8%
Oc1cc2cc(-c3csc(-c4ccc(F)cc4)n3)cc3c2n1CCC3,16.7%,-8.1%
COc1cccc(C(=O)Nc2ccc(N3CCN(S(C)(=O)=O)CC3)cc2)c1,i,-6.3%
OCCNc1ncnc2c1sc1nc(N3CCOCC3)c3c(c12)CCC3,i,-4.6%
Cc1ccc(-n2c(=O)c3c(c4cc(C)ccc4n3C)n(CC(=O)NCC3CCCO3)c2=O)cc1 (stereo not drawn),9.4%&-3.7%,-3.2%&-3.9%
CCCN(CC(=O)Nc1ccccc1C)C(=O)C1CC(=O)N(c2cccc(C)c2C)C1 (stereo not drawn),-15.3%,-5.4%
O=C(C1CCCC1)N1CCC(CC2CC(c3cccc(Br)c3)=NO2)(C(=O)NCC2CCCCC2)CC1 (stereo not drawn),-1.3%,-20.4%
Cc1cc(Cl)ccc1NC(=O)CN1C(=O)COc2ccc(S(=O)(=O)Nc3ccccc3)cc21,-20.1%,-13.8%
NC(=O)c1c(NC(=S)Nc2ccc(F)cc2)sc2c1CCCC2,-13.5%,-7.8%
CCOC(=O)CCNC(=O)Nc1ccc2nc(C)n(Cc3cccc(Cl)c3)c(=O)c2c1,5.3%,-8.3%
O=C1c2ccccc2S(=O)(=O)N1Cc1c(F)cccc1Cl,-11.7%,0.0%
CCn1c(=O)c(C(=O)CN2CCN(S(=O)(=O)c3cc(C)ccc3C)CC2)c(N)n(Cc2ccccc2)c1=O,-9.0%,-12.4%
COc1ccccc1C(=O)Nc1cc2ccccc2oc1=O,nt,-10.5%
CC1CCc2c(nc3ncnn3c2N2CCN(c3ccccc3)CC2)C1 (stereo not drawn),i,-16.7%
O=C(CNC(=O)c1sc2ccccc2c1Cl)NCc1cccnc1,-4.9%,-25.7%
CCOC(=O)CNC(=O)c1cc2c(=O)n(CC)c3ccccc3c2s1,7.3%,-9.8%
Cc1nnc(N2CCC(C(=O)NCCC(C)C)CC2)c2nn(-c3ccc(Cl)cc3)c(C)c12,-24.8%,-17.5%
CCc1cccc(-n2c(=O)c3cccnc3n2CC(=O)NCc2ccc(C)cc2)c1,-11.1%[7.34 µM],-7.0%[7.34 µM]
CC(C)CN1C(=O)C(=O)N(CC(=O)NCc2ccc3c(c2)OCO3)C1=O,nt,5.7%

# Outcome played no part in choosing rows. About 0.88% of those tested had a hit in this group.
